NS1 inh: blocks influenza NS1 protein function. hit rate 0.4% among 270,000. Potency, µM (doses to about 46.1 µM), for inactives: top-dose activity, positive = more growth. S. cerevisiae slowed by influenza A NS1, growth recovery by OD600; active means well fitted rising curve with a large enough effect; inconclusive means small, poorly fitted or top-dose-only effect; inactive means no such curve, though single readings can be large or run the other way; note: nearly all actives have a fitted effect of over 50% in size
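Compounds were scored for reversing the slow growth caused by influenza A NS1 in S. cerevisiae, measured by optical density at 600 nm. Assay medium contained 2% galactose at pH 6.0; NS1-free yeast of the same strain were the positive control.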
StopGo reporter: lowers the luciferase signal of an FMDV 2A StopGo reporter; hit rate 1.2% among 410,000; human cells with a luciferase reporter of 2A StopGo recoding; control for the full effect not named in the record; Potency, µM (titrated, usually from 57.9 µM), for inactives: top-dose signal change, negative = less light; active = well fitted falling curve with a large enough effect; inconclusive = small, poorly fitted or top-dose-only effect; inactive = no such curve, though single readings can be large or run the other way; tested in HEK293T cells; note: % is set by controls: 0 for no effect and ±100 for the full control effect; nearly all actives have a fitted effect of over 45% in size; luciferase light after 4 h
Cruzain noTriton: blocks cruzain activity in detergent-free assay | hit rate 2.3% among 200,000 | P25779 | Potency, µM, for inactives: max response, negative = inhibition, hits mostly inhibitors | purified cruzain, Z-FR-AMC fluorescence, no detergent;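 note: plate controls were enzyme without inhibitor for no effect and buffer without enzyme for full effect; nearly all actives have a fitted effect of over 40% in size; top concentration of the series not given in the record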
Target sequence (P25779 123-467 limits assumed): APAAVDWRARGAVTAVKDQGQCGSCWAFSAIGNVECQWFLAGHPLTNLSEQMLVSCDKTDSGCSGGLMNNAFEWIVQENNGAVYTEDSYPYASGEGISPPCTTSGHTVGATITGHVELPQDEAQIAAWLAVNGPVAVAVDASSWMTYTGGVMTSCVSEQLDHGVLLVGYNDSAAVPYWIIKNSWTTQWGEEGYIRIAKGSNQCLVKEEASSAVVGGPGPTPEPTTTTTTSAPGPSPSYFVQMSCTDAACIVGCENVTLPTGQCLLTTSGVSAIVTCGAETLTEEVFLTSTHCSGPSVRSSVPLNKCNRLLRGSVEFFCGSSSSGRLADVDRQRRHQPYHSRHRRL
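Detergent-free condition (0.00005% Triton X-100) in acetate buffer pH 5.5 with DTT. 1.5 nM enzyme and compound were pre-mixed 15 min, then 2 uM Z-FR-AMC substrate added; reaction progress from fluorescence change between first and third reads (60 s).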
Cruzain Triton: cruzain (T. cruzi) inhibition with detergent; hit rate 0.43% among 200,000; Potency, µM, without a hit: max response, negative = inhibition, most hits filed as inhibitors; purified cruzain, Z-FR-AMC fluorescence, 0.01% Triton; P25779;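 note: plate controls were neutral wells for no effect and buffer without enzyme for full effect; nearly all actives have a fitted effect of over 40% in size; top concentration of the series not given in the record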
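Detergent-containing arm of a paired screen for aggregation-based inhibition: 0.01% Triton X-100 present. Cruzain at 1.5 nM cleaved 2 uM Z-FR-AMC at pH 5.5 with 5 mM DTT; AMC fluorescence gain over 60 s measured activity.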
Lassa entry inh: inhibitors of Lassa virus binding or cell entry; Lassa virus pseudotype entry inhibition, cell reporter; control for the full effect not named in the record; Potency, µM (doses to about 37.9 µM), for inactives: at the highest dose activity change, negative = inhibition, hits mostly inhibitors; hit rate 1.2% among 300,000; AID 540256; active means well fitted inhibition curve with a large enough effect; inconclusive means small, poorly fitted or top-dose-only effect, or effect the other way; inactive means flat fitted curve, though single readings scatter; tested in HEK293 cells; note: % is set by controls: 0 for no effect and ±100 for the full control effect; nearly all actives have a fitted effect of over 50% in size; luciferase read-out
MARV entry inh: blocks Marburg virus binding to or entry into cells. Potency, µM (doses to about 37.8 µM), without a hit: at the highest dose activity change, negative = inhibition, hits mostly inhibitors. AID 540276. Marburg virus pseudotyped entry inhibition, cell reporter; control for the full effect not named in the record; about a third of the inactives were read at about 46 µM. hit rate 1.8% among 300,000; active = well fitted inhibition curve with a large enough effect; inconclusive = small, poorly fitted or top-dose-only effect, or effect the other way; inactive = flat fitted curve, though single readings scatter; tested in HEK293 cells; about a fifth of its hits are not listed in these tables; note: % is set by controls: 0 for no effect and ±100 for the full control effect; luciferase read-out
SARS PLpro yeast: blocks SARS-CoV papain-like protease in a yeast assay. S. cerevisiae expressing SARS-CoV PLpro, growth rescue; control for the full effect not named in the record. Potency, µM (series often up to 32.9 µM), without a hit: at the highest dose activity, positive = growth rescue. hit rate 0.19% among 330,000. AID 485353; active means well fitted rising curve with a large enough effect; inconclusive means small, poorly fitted or top-dose-only effect; inactive means no such curve, though single readings can be large or run the other way; note: 0% is about no effect; nearly all actives have a fitted effect of over 55% in size; growth read by luminescence after 48 h
RE007 growth inh: less growth of the S. pombe RE007 Vpr strain. S. pombe RE007 Vpr strain, BacTiter-Glo ATP luminescence, 24 h; control for the full effect not named in the record. Potency, µM (doses to about 92.2 µM), for the others: at the top dose activity change, negative = less growth. hit rate 0.21% among 360,000; active = well fitted falling curve with a large enough effect; inconclusive = small, poorly fitted or top-dose-only effect; inactive = no such curve, though single readings can be large or run the other way;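 note: % is set by controls: 0 for no effect and ±100 for the full control effect; nearly all actives have a fitted effect of over 50% in size; the assay follows cell death caused by Vpr and the record does not say whether a fall means rescue or toxicity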
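Fission yeast RE007 carrying one integrated HIV-1 vpr copy, seeded at OD 0.01 in PMG+AL medium with 23 nL pinned compound. Grown 24 h at 30 degrees; viability read by BacTiter-Glo luminescence after 5 min.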
Numbers without * were called inactive; ? = inconclusive; · = not tested or not shown; & = joins results of further samples; [ ] = remark or other dose. Unless noted, calls come from the whole dose curve; as a rule, active = well fitted curve in the direction sought with a large enough effect; inconclusive = small, poorly fitted or top-dose-only effect, or another doubt; inactive = no such curve, though single readings can be large; an effect the other way counts as inactive or inconclusive. Potency is the fitted concentration of half-maximal effect.

Each structure is followed by: NS1 inh	StopGo reporter	Cruzain noTriton	Cruzain Triton	Lassa entry inh	MARV entry inh	SARS PLpro yeast	RE007 growth inh
Nc1ncnc2c1cnn2-c1ccccc1
  -12%	5%	10%	3.9%	0%	24%&24%	1%	-4%
CC1=C(C(=O)N2CCOCC2)C(c2ccsc2)C2=C(CCCC2=O)N1 (configuration not stated)
  -2%	2%	7%	-1.0%	3%	-3%	2%	3%
CCC(C)(C)NC(=O)c1sccc1Oc1ccc(F)cc1[N+](=O)[O-]
  ·	?	·	·	?	?	-6%	12%
CN(C(=O)c1ccc(S(=O)(=O)NC2CCCC2)cc1)C1CCCCC1
  -15%	·	10%	1.2%	-25%	3%&-8%	5%	3%
N#CC1(c2ccccc2)CCN(S(=O)(=O)c2ccc(OC(F)(F)F)cc2)CC1
  0%	-23%	·	·	-25%	?	-3%	6%
COc1ccc(N/N=C(\C=N\O)C(=O)c2ccc(OC)cc2)cc1
  -116%	-1%	-6%	-12%	2.8µM*	?	-4%	-20%
COc1cc(/C(C)=N/NC(=O)CSc2nncn2C)ccc1OCc1ccccc1Cl
  -14%	-2%	30%	-7.0%	6%	1%	16%	6%
c1ccc(Cn2c(-c3ccccc3)c[n+]3c2SCCC3)cc1
  4%	-13%	·	·	?	?	0%	-21%
CCCc1ccc(OCCNC(C)=O)cc1
  -7%	·	-18%	-1.4%	5%	4%	4%	3%
Cc1c(C(=O)O)oc2c1/C(=N\O)CC(C)(C)C2
  20%	1%	16%	2.2%	7%	19%	3%	-3%
COc1ccc(S(=O)(=O)N2CCOC23CCN(S(=O)(=O)c2ccc(F)cc2C)CC3)cc1
  ·	3%	·	·	?	?	4%	-24%
C=CCn1c(SCc2csc(-c3ccc(C)cc3)n2)nnc1-c1ccccc1OC
  3%	?	5%	-8.1%	?	?	22%	20%
O=S1(=O)CC=C(CSc2nc3ccccc3[nH]2)C1
  9%	-4%	-4%	2.5%	-8%	13%[46.1 µM]	0%	-5%
COc1ccc2[nH]c3c(c2c1)CCN1C(=O)C(CC(=O)NC(C)(C)C)C[C@H](C(=O)N(C(C)C)C(C)C)[C@@]31C (some centres not stated)
  ·	-28%	·	·	·	-2%	-2%	4%
COc1ccc(NC(=O)CSc2nnc3c4c(nc(-c5ccccc5)n23)CC(C)(C)OC4)cc1
  11%	-16%	?	-2.8%	?	-5%	29%	33%
COc1ccc2oc(C(=O)N3CCN(C(=O)c4ccco4)CC3)c(C)c2c1
  ·	-20%	·	·	-15%	0%	-3%	-8%
O=C(NCc1ccc2c(c1)OCO2)C1CCN(c2ccc(S(=O)(=O)N3CCCC3)cc2)CC1
  12%	?	25µM*	-1.1%	?	?	-8%	1%
Cn1c(=O)oc2cc(S(=O)(=O)Nc3ccc4c(c3)OCCO4)ccc21
  -16%	-20%	-5%	2.0%	1%	5%	·	-11%
COc1ccccc1N1CCN(C(=O)c2c(-c3c(Cl)cccc3Cl)noc2C)CC1
  -11%	-2%	?	-2.9%	-19%	?	-2%	30%
O=C(Nc1ccccc1C(=O)O)c1ccc(Br)c(S(=O)(=O)NCc2ccccc2)c1
  6%	67%[activator]	·	·	13%	?	-2%	-8%

Each structure is followed by: NS1 inh	StopGo reporter	Cruzain noTriton	Cruzain Triton	Lassa entry inh	MARV entry inh	SARS PLpro yeast	RE007 growth inh
CCOc1ccc2nc(NC(=O)CCn3cccc3)sc2c1
  7%	29%	?	-0.3%	·	·	11%	12%
COc1ccccc1OCCCn1c(=O)oc2ccccc21
  3%	11%	-8%	-5.0%	-1%	?	3%	-24%
COc1ccc(CCNC(=O)c2cc3c(=O)n4ccccc4nc3n(C3CCCCC3)c2=N)cc1OC
  1%	?	·	·	·	·	4%	2%
CCC(C)[C@H](N)c1nnc(SCC(=O)Nc2cccc(Cl)c2)o1 (some centres not stated)
  ?	-6%	3%	-4.3%	-7%	10%	-19%	0%
CCCC[C@H]1COCCS(=O)(=O)N1Cc1ccccc1F
  -1%	-9%	·	·	·	·	-4%	-7%
CCNc1nc2c(cnn2C)c(=O)[nH]1
  ·	-10%	·	·	6%	-13%	·	2%
Cc1ccc(/C=C2\SC(=S)N(CCCC(=O)NC3CCCC3)C2=O)cc1
  7%	16µM*	·	·	1.1µM*	?	5%	-8%
CCS(=O)(=O)N1CCN(S(=O)(=O)c2ccc3ccccc3c2)CC1
  -8%	-9%	·	·	0%[46.1 µM]	-10%[46.1 µM]	-11%	4%
COc1cccc(NC(=O)C(OC(=O)c2cnc(C)cn2)c2ccccc2)c1 (configuration not stated)
  ·	23%	·	·	18%[46.1 µM]	-2%	-2%	4%
COc1ccc2[nH]c3c(=O)n(CCCCC(=O)NCCN4CCCC4)c(=S)[nH]c3c2c1
  0%	19%	0%	-13%	13%	15%	-3%	-5%
Cc1ccc(S(=O)(=O)N(CC(=O)N/N=C/c2ccc(F)cc2)c2cccc3cccnc23)cc1
  ?	·	1%	2.1%	-4%	?	4%	-4%
COCCn1c(SC(C)C(=O)NC2CC2)nnc1-c1cccc(C)c1 (configuration not stated)
  ·	-5%	·	·	-8%[46.1 µM]	22%	-1%	-12%
COc1ccc(C(C)(C)C)cc1NC(=O)c1ccc2ncsc2c1
  -9%	-13%	·	·	22%	-26%[46.1 µM]	-10%	1%
Cn1nnnc1SCc1ccc([N+](=O)[O-])cc1
  7%	-2%	3%	-0.7%	9%	3%	14%	7%
Cc1ccc(NS(=O)(=O)c2ccc(C(=O)NCc3ccccn3)cc2)cc1
  4%	11%	·	·	18%[46.1 µM]	-21%[46.1 µM]	-1%	-3%
Cc1sc2ncnc(N3CCC(C(=O)N(CC(C)C)c4nc5ccccc5s4)CC3)c2c1C
  ·	-26%	·	·	-8%	-7%	-1%	-17%
O=C(NCc1ccccc1)C(=O)NCC(c1ccco1)S(=O)(=O)c1ccccc1 (configuration not stated)
  ·	0%	-8%	1.5%	-8%[46.1 µM]	·	·	·
Cc1ccc(S(=O)(=O)NC(=NCc2ccccc2)c2ccc(F)cc2)cc1
  3%	51%[activator]	·	·	9%[46.1 µM]	-10%[46.1 µM]	-1%	10%
O=C(O)C(c1cccs1)C1(O)CCCCC1 (configuration not stated)
  ·	-9%	·	·	-2%[46.1 µM]	0%[46.1 µM]	·	-5%
N#Cc1ccccc1S(=O)(=O)N1CCN(S(=O)(=O)c2ccc(Br)c(C(=O)O)c2)CC1
  6%	-6%	·	·	·	?	2%	4%

Each structure is followed by: NS1 inh	StopGo reporter	Cruzain noTriton	Cruzain Triton	Lassa entry inh	MARV entry inh	SARS PLpro yeast	RE007 growth inh
Cc1nc(N2CCN(C)CC2)c2c(C)c(C(=O)Nc3ccc(F)cc3)sc2n1
  -2%	?	6%	-1.8%	-15%	?	-15%	-2%
CC(C)c1ccccc1NC(=O)COC(=O)c1cc([N+](=O)[O-])ccc1N1CCOCC1
  ·	?	·	·	-9%	?	-11%	10%
COC(=O)c1scc(-c2ccc(C)cc2)c1S(=O)(=O)Nc1cc(Cl)c(OC)cc1OC
  ·	-25%	?	-7.1%	-3%[46.1 µM]	·	·	·
Cc1ccccc1CSCC(=O)N/N=C/c1cccs1
  -62%	0%	0%	-4.8%	?	?	-5%	45%
COC(=O)c1ccccc1NC(=O)C1CCCN(C(=O)c2cnn(-c3ccc(F)cc3)c2-n2cccc2)C1 (configuration not stated)
  ·	?	-11%	-2.5%	-4%[46.1 µM]	·	·	·
CN(C)S(=O)(=O)n1cc(/C=C(\NC(=O)c2ccccc2F)C(=O)N2CCOCC2)c2ccccc21
  11%	-11%	·	·	·	·	2%	1%
CCOc1ccccc1NC(=O)CSc1nc2cc(OC)c(OC)cc2c2nc(-c3ccccc3)nn12
  ·	-1%	-12%	0.0%	9%[46.1 µM]	17%[46.1 µM]	·	·
O=C(c1ccccc1-c1ccccc1)N1CCOCC1
  4%	-23%	20%	2.5%	2%	?	5%	-9%
c1ccc(CSc2nnc(-c3ccco3)n2Cc2ccccc2)cc1
  -80%	40%[activator]	-9%	-9.5%	9%	?	-5%	15%
S=c1[nH]ncn1/N=C/c1ccc(Br)cc1
  -36%	21%	2%	-1.7%	16%	3%	13%	-24%
O=C(c1ccc2nc(N3CCOCC3)sc2c1)N1CCC(Cc2ccccc2)CC1
  -112%	-4%	?	-8.1%	·	-5%	-8%	22%
COc1cc(/C=N/NC(=S)NCCN2CCOCC2)ccc1O
  -3%	-10%	-7%	-9.6%	?	31%	-33%	2%
COc1ccc(C(=O)NC(=O)COC(=O)c2ccc3ncsc3c2)cc1
  16%	·	2%	-13%	1%	13%	16%	·
CCCCC(=Nc1ccccc1OC)C1=C(O)CC(c2ccccc2)CC1=O (configuration not stated)
  -41%	-12%	-6%	-6.8%	-3%	22%	-65%	?
COc1cccc([C@@H]2Oc3ccc(OC)cc3C(=O)[C@H]2OC(=O)NCc2ccc3c(c2)OCO3)c1
  2%	·	-9%&-14%	-5.0%&-5.4%	-2%	31%&31%	1%	·
COc1ccccc1NC(=O)C/C(C)=N/NC(=O)c1ccccn1
  -8%	41%[activator]	·	·	?	?	-2%	2%
O=C(N/N=C\C=C\c1ccc2c(c1)OCO2)c1cccnc1
  10%	36%[activator]	-11%	-11%	4%	10%	9%	13%
CCOC(=O)c1cc(-c2ccc(OC)cc2)n(CCC(=O)Nc2cccc(C(C)=O)c2)c1C
  ·	-9%	31%	-7.6%	-17%[46.1 µM]	·	·	·
COc1ccccc1Cn1c(=S)[nH]c2cc(C(=O)NCc3cccnc3)ccc2c1=O
  ·	-27%	·	·	·	?	0%	3%
COc1ccc(N2CCN(c3ncnc4c3cnn4-c3ccc(C)c(Cl)c3)CC2)cc1
  ·	-1%	15%	0.1%	20%[46.1 µM]	·	·	·
CN(C)/C=C/C(=O)c1cccc(Cl)c1
  -27%	7%	-20%	-2.6%	4%	5%	-28%	?
CCN(CC)CCN(Cc1cc2cc3c(cc2[nH]c1=O)OCO3)C(=S)NC
  1%	0%	·	·	7%[46.1 µM]	2%[46.1 µM]	?	-21%
